# CCT chaperon mod: High-Throughput Screening for Modulators of Cytosolic Chaperonin Activity. purified chaperonin ATPase assay, HTRF ADP detection, 30 min. activity change, % (concentration not given with the values), hits read low. 360,000 compounds, 0.3% hits. AID 651819, 2012; in the data active = activity change below about -30%; note: % is set by controls: 0 for no effect and ±100 for the full control effect
#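 TRiC (40 or 20 nM final, by batch activity) in 30 mM Tris pH 7.4, 100 mM KCl, 5 mM MgCl2, 1 mM DTT was treated with compound at 76 uM single dose, then 10 uM ATP, 30 min at 37 °C. ADP was read by HTRF Transcreener.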
# IL2 activator: qHTS of IL-2 Activators | AID 652025, 2013 | 360,000 compounds, 0.065% hits | IL-2 activation reporter assay, cell-based qHTS; stimulated with anti-CD3/CD4/CD28 beads; in transgenic mouse T cells | activation, % (series mostly up to about 46 µM); in the data active = activation above about 50%; inconclusive = mostly about 30% to 49%; note: 0% is about no effect
#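 Readout: EGFP and DsRed signals by fluorescent plate cytometry. Unstimulated transgenic mouse T cells received compound 60 min before antibody-bead stimulation, then incubated 18 h at 37 degrees C.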
# EPAC1 ag: qHTS for Agonist of cAMP-regulated guanine nucleotide exchange factor 3 (EPAC1): primary screen. EPAC1 agonist qHTS, biochemical assay; response scale: 100% = response to 6.5 mM cAMP. Potency, µM (series often up to 154 µM), for the others: top-dose activation, usual class: activators. 360,000 compounds, 0.073% hits. AID 720707, 2013; note: potency is the fitted concentration of half-maximal effect; nearly all actives have a fitted effect of over 60% in size
#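 Normalized to 6.5 mM cAMP, activity reflects EPAC1-catalysed release of BODIPY-GDP from Rap1B, followed kinetically over 30 min at 480 nm excitation, 540 nm emission. Reaction contained 100 nM EPAC1, 250 nM Rap1B-BODIPY-GDP, 50 uM GDP.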
# EPAC1 antag: qHTS for Antagonist of cAMP-regulated guanine nucleotide exchange factor 3 (EPAC1): primary screen | Rap guanine nucleotide exchange factor 3 (Homo sapiens), O95398 | EPAC1 GEF assay, Rap1b-BODIPY-GDP exchange fluorescence | Potency, µM (series often up to 115 µM), for the others: at the top dose activity change, negative = inhibition, hits mostly inhibitors | 360,000 compounds, 0.14% hits | AID 720709, 2013;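 note: potency is the fitted concentration of half-maximal effect; plate controls were vehicle for no effect and positive control for full effect; nearly all actives have a fitted effect of over 50% in size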
# PLK1 PBD inh: qHTS for Inhibitors of PLK1-PDB (polo-like kinase 1 - polo-box domain): Primary Screen; Potency, µM, inactives show max response, negative = inhibition, most hits filed as inhibitors; AID 720504, 2013; 360,000 compounds, 2.8% hits; Plk1 PBD binding of FITC phosphopeptide, fluorescence polarization; note: potency is the fitted concentration of half-maximal effect; series mostly up to about 57 µM; % is set by controls: 0 for no effect and ±100 for the full control effect; nearly all actives have a fitted effect of over 65% in size
# Target sequence (P53350 whole entry, looked up, the tested form may be a part): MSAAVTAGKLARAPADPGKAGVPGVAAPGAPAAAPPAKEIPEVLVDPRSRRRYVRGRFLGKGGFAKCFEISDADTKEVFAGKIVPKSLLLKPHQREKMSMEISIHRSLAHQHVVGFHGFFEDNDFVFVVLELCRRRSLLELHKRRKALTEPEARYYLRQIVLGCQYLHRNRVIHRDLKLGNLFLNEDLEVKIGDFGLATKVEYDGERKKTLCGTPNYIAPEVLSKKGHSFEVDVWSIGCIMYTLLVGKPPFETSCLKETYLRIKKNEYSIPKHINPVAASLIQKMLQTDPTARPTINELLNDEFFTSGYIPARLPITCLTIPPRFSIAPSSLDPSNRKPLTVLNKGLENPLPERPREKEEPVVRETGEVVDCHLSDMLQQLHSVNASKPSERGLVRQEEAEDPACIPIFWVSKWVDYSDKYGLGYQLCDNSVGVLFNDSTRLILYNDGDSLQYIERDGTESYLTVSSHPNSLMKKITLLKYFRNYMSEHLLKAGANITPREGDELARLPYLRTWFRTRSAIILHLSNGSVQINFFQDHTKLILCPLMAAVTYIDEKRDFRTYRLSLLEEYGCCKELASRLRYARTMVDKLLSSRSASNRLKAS
# * hit, by the source's call; ? = inconclusive; & = joins results of further samples; [ ] = another dose, or the depositor's remark. Unless noted, calls come from the whole dose curve; as a rule, active = well fitted curve in the direction sought with a large enough effect; inconclusive = small, poorly fitted or top-dose-only effect, or another doubt; inactive = no such curve, though single readings can be large; an effect the other way counts as inactive or inconclusive. An excerpt (hit frequency here may not be typical).
1: COc1ccc(Cl)cc1NC(=O)COC(=O)CCNC(C)=O
2: CC(=O)Nc1ccc(S(=O)(=O)N[C@@H](C)C(=O)OCC(=O)c2ccc(Br)s2)cc1
3: Cc1cccc(NC(=O)CN2C(=O)S/C(=C\c3cccn3-c3cccc(C(=O)O)c3)C2=O)c1
4: O=C(NC1CCCC1)C1CCN(C(=O)c2ccc(Cl)cc2Cl)CC1
5: C/C(=N\NC(=O)c1ccc(NS(=O)(=O)c2cccs2)cc1)c1ccc(C(C)(C)C)cc1
6: O=C(Nc1cc(Cl)ccc1Cl)c1noc2c1CCCC2
7: CCOc1ccc(/C=N/n2c(C)nnc2C)cc1OC
8: CCC(=O)N1CCC1(C)C(=O)Nc1ccc2scnc2c1 (stereo not given)
Screen / compound no.,1,2,3,4,5,6,7,8
CCT chaperon mod,0.9,-0.1,1.0,1.0,-1.5,-0.7,-2.0,-0.9
IL2 activator,-2.2,-1.6,-1.9,-2.3,-1.3,5.4,-0.6,-0.7
EPAC1 ag,-2%,11%,11%,9%,15%,-9%,-3%,-11%
EPAC1 antag,10%,-15%,?,-24%,-5%,-1%,-6%,-3%
PLK1 PBD inh,-1%,-4%,?,4%,-12%,-3%,-17%,-9%

9: C/C(=N\NC(=O)c1ccc([N+](=O)[O-])cc1)c1c(O)cc(C)oc1=O
10: COC(=O)[C@H](C(C)C)N(Cc1ccccc1)S(=O)(=O)CCN1CCCC1
11: Cc1ccc(/C=C2/Sc3ccc(C(=O)N4CCN(C)CC4)cc3NC2=O)cc1
12: CC1(C)CC(/C=C/c2ccccc2)=Nc2ccccc2N1
13: Cc1ccc(/C=C2/Sc3ccc(C(=O)N4CCN(c5ccccn5)CC4)cc3NC2=O)cc1
14: O=C(O)CN1C(=O)SC(Nc2ccc(Cl)cc2)C1=O (stereo not given)
15: COc1ccc(/C=C/C(=O)NC(=S)N2CCN(c3ccccn3)CC2)cc1
16: COc1ccccc1CC(=O)Nc1ccc(-c2noc(COc3ccc(Cl)c(C)c3)n2)cc1
Screen / compound no.,9,10,11,12,13,14,15,16
CCT chaperon mod,-3.8,-2.3,-2.2,-0.4,0.3,-2.4,-1.7,1.7
IL2 activator,-1.4,-0.3,-1.2,-4.8,0.7,0.3,0.3,-2.7
EPAC1 ag,7%,-14%,8%,9%,-7%,0%,6%,6%
EPAC1 antag,14%,-14%,8%,18%,3%,10%,0%,4%
PLK1 PBD inh,24µM*,-8%,-25%,-1%,23%,-5%,-10%,-1%

17: COc1ccccc1NC(=O)C(=O)N(c1cccnc1)C(C(=O)NC(C)(C)C)c1ccccc1 (stereo not given)
18: CN(C)CCN(C(=O)C1CCCCC1)c1nc2cc3c(cc2s1)OCO3
19: O=C(O)CN1C(=O)SC(Nc2ccc(C(=O)O)cc2)C1=O (stereo not given)
20: CC(N=C(NC#N)Nc1ccncc1)C(C)(C)C (stereo not given)
21: C=CCN(CC=C)c1ncnc2[nH]ncc12
22: COc1cc(CNC(=O)c2cc(-c3cc(OC)ccc3Cl)n[nH]2)cc(OC)c1
23: CC(C)[C@H](NC(=O)c1ccccc1)C(=O)OCC(=O)c1ccc2c(c1)NC(=O)CO2
24: COCCOc1cc(N)c(Cl)cc1Cl
Screen / compound no.,17,18,19,20,21,22,23,24
CCT chaperon mod,0.9,0.8,-0.8,1.2&0.4,-2.0,-2.8,2.1,-3.3
IL2 activator,-2.1,-4.2,-0.4,-0.2&0.0,1.3,0.5,1.2,0.2
EPAC1 ag,6%,-5%,7%,-6%&-10%,0%,-18%,-6%,10%
EPAC1 antag,11%,10%,13%,-14%&0%,-7%,-17%,1%,-27%
PLK1 PBD inh,?,-1%,-6%,-11%&-1%,5%,5%,11µM*,-8%

25: O=C(Cc1cccs1)Nc1nnc(Cc2ccccc2)s1
26: CCC(CC)C(=O)NC12CC3CC(CC(C3)C1)C2
27: CCOC(=O)C1CCN(C(=O)c2ccc3c(c2)NC(=O)/C(=C/c2ccccc2)S3)CC1
28: CCc1ccc(NC(=O)c2cc(C)no2)cc1
29: COC(=O)[C@H](CC(C)C)NS(=O)(=O)N(Cc1ccccc1)[C@@H](CC(C)C)C(=O)OC
30: CC(=O)N/C(=C\c1ccccc1)C(=O)OC(C)C(=O)N(C)c1ccccc1 (stereo not given)
31: CCOC(=O)[C@@H](C)N(C(=O)OC(C)(C)C)S(=O)(=O)N(Cc1ccccc1)[C@H](C(=O)OC)C(C)C
32: COc1cc(CNC(=O)c2cc(-c3cc(Cl)ccc3C)n[nH]2)cc(OC)c1
Screen / compound no.,25,26,27,28,29,30,31,32
CCT chaperon mod,0.2,-1.6,-2.4,0.1,-1.5,-1.4,0.4,-1.7
IL2 activator,1.4,3.6,-0.2,-4.2,-4.1,0.3,-0.2,0.0
EPAC1 ag,-9%,4%,4%,-9%,-35%[inhibitor],16%,-23%,10%
EPAC1 antag,-18%,3%,-12%,1%,-22%,-3%,-26%,-10%
PLK1 PBD inh,27µM*,-4%,-4%,3%,-6%,-2%,-2%,-12%

# Brought forward from above: 2 entries, followed by the next part.
31: CCOC(=O)[C@@H](C)N(C(=O)OC(C)(C)C)S(=O)(=O)N(Cc1ccccc1)[C@H](C(=O)OC)C(C)C
32: COc1cc(CNC(=O)c2cc(-c3cc(Cl)ccc3C)n[nH]2)cc(OC)c1
33: CCOC(=O)/C(=N/O)C1=NC(C)(C)Cc2cc(C)c(C)cc21
34: CC(C)N(C(=O)c1ccc2nc(-c3ccccc3)c(-c3ccccc3)nc2c1)C(C)C
35: O=C(Nc1nnc(CCN2CCOCC2)s1)c1ccccc1
36: CC1(NC(=O)CCc2nc3sc4c(c3c(=O)[nH]2)CCCC4)CCS(=O)(=O)C1 (stereo not given)
37: Cc1ccc(N2CC(C(=O)Nc3nc4ccc(S(C)(=O)=O)cc4s3)CC2=O)cc1C (stereo not given)
38: CC(=O)N1CCc2cc(C(=O)CN3CCC(C)CC3)ccc21
39: COc1cccc2cc(C(=O)CS(=O)(=O)c3ccc(C)cc3)c(=O)oc12
40: CCc1ccc(NC(=O)c2noc3c2CCC3)cc1
Screen / compound no.,31,32,33,34,35,36,37,38,39,40
CCT chaperon mod,0.4,-1.7,-0.1,-0.2,-1.2,-0.8,-0.5,0.0,2.9,-1.8
IL2 activator,-0.2,0.0,-1.3,-1.2,-0.1,-0.5,0.7,-0.1,-0.9,0.5
EPAC1 ag,-23%,10%,-4%,18%,3%,0%,8%,-13%,5%,5%
EPAC1 antag,-26%,-10%,-26%,-26%,3%,?,-8%,-3%,?,-1%
PLK1 PBD inh,-2%,-12%,-4%,-25%,?,-25%,?,-9%,19µM*,-30%

# Results in EPAC1 ag (2 entries from above):
no.	Structure	EPAC1 ag
34	CC(C)N(C(=O)c1ccc2nc(-c3ccccc3)c(-c3ccccc3)nc2c1)C(C)C	18%
35	O=C(Nc1nnc(CCN2CCOCC2)s1)c1ccccc1	3%

# Other records
41: CCOC(=O)[C@@H](C)NS(=O)(=O)N(Cc1ccccc1)[C@H](C(=O)OC)C(C)C
42: COc1ccc(Cl)cc1NC(=O)CN(C)CC(=O)NCc1cccs1
43: Cc1nnc(SCC(=O)NC(=O)NCc2ccco2)n1Cc1ccccc1
44: O=C(COC(=O)Cc1cccs1)Nc1ccccc1F
45: CN(C)c1cccc(C(=O)OCc2cc(=O)oc3cc(O)ccc23)c1
46: CN(C)CCCN1c2ccccc2Sc2ccc(C(F)(F)F)cc21
47: CCOC(=O)C1=NN(c2ccc(OC)cc2)C2C(=O)N(c3ccccc3OC)C(=O)C12 (stereo not given)
48: Cc1cccc(NC(=O)CNC(=O)CCc2nc3sc4c(c3c(=O)[nH]2)CCCC4)c1C
Screen / compound no.,41,42,43,44,45,46,47,48
CCT chaperon mod,-1.0,-2.2,0.2,-1.6,3.3,-0.7,-1.5,-1.2
IL2 activator,-0.6,0.6,-0.8,-1.5,0.5,-0.6,0.4,5.4
EPAC1 ag,-6%,-8%,13%,3%,-8%,2%,8%,10%
EPAC1 antag,-2%,-5%,-16%,2%,-28%,-9%,-27%,?
PLK1 PBD inh,0%,3%,-15%,-1%,?,0%,-10%,?

49: CC(=O)O[C@H]1c2ccccc2-c2ccccc2[C@@H]1OC(C)=O
50: CCCCNC(=O)c1nc(C2CCN(S(=O)(=O)c3c(F)cccc3F)CC2)oc1-c1ccccc1
51: O=C(NN=Cc1c(F)c(F)c(F)c(F)c1F)c1ccc(NS(=O)(=O)c2cccs2)cc1
52: O=C(CSc1nc(O)cc(=O)[nH]1)C1CC1
53: O=C(O)c1ccccc1-c1ccc(C=c2sc3nc4cc(Br)cnc4n3c2=O)o1
54: Cc1cc(C)c(C(=O)N2CCCC(CNC(=O)C3(c4ccc(Cl)cc4)CC3)C2)c(=O)[nH]1 (stereo not given)
55: CN1CCN(C(=O)c2ccc3c(c2)NC(=O)/C(=C/c2ccccc2)S3)CC1
56: Cc1sc2ncn(CC(=O)NCCCC(=O)N3CCN(c4ccccc4)CC3)c(=O)c2c1C
Screen / compound no.,49,50,51,52,53,54,55,56
CCT chaperon mod,-2.6,-1.2,-2.9,1.2,-2.5,0.2,-0.4,-0.1
IL2 activator,0.3,-0.5,-3.0,0.5,0.6,1.7,-1.0,0.2
EPAC1 ag,5%,-19%,3%,-14%,18%,21%,1%,5%
EPAC1 antag,5%,-16%,-11%,-4%,?,-13%,16%,11%
PLK1 PBD inh,1%,-3%,4%,-1%,?,-17%,-8%,-6%

57: O=C(CSc1ncnc2c1cnn2-c1ccc(F)cc1)NCc1ccc2c(c1)OCO2
58: CCOc1ccccc1NS(=O)(=O)c1c[nH]c(C(=O)OC)c1
59: O=C1C=C(NCc2ccccc2)CCC1
60: CC(=O)Nc1ccc(-c2csc(-c3cccnc3)n2)cc1
61: COc1cccc(/C=N\n2c(C)nnc2C)c1OC
62: COc1cccc(C2C(C(=O)Nc3cccnc3)=C(C)Nc3nnnn32)c1OC (stereo not given)
63: COc1ccc(-c2c(NCCc3ccccc3)c(=O)c2=O)cc1
64: COCCS(=O)(=O)N(Cc1ccccc1)[C@H](C(=O)OC)C(C)C
Screen / compound no.,57,58,59,60,61,62,63,64
CCT chaperon mod,1.6,-0.1,-3.9,-0.2,-1.0,-0.3,-5.7,-0.2
IL2 activator,0.1,-1.7,3.2,-1.9,0.2,-2.8,0.7,-0.3
EPAC1 ag,6%,-6%,3%,-4%,4%,8%,-4%,-19%
EPAC1 antag,30%,2%,3%,-3%,10%,1%,-4%,0%
PLK1 PBD inh,1%,-6%,-9%,-26%,-6%,0%,0%,-4%

# Reformatted: entries from further up.
nr	Structure	CCT chaperon mod	IL2 activator	EPAC1 ag	EPAC1 antag	PLK1 PBD inh
57	O=C(CSc1ncnc2c1cnn2-c1ccc(F)cc1)NCc1ccc2c(c1)OCO2	1.6	0.1	6%	30%	1%
58	CCOc1ccccc1NS(=O)(=O)c1c[nH]c(C(=O)OC)c1	-0.1	-1.7	-6%	2%	-6%

# Next section
65: CCOC(=O)c1c(-c2ccccc2)nnn1-c1nc(OC)nc(N2CCOCC2)n1
66: Cc1sc2ncn(CC(=O)NCCCC(=O)N3CCN(c4ncccn4)CC3)c(=O)c2c1C
67: COC(=O)C1=NN(c2ccccc2OC)C2C(=O)N(c3ccccc3OC)C(=O)C12 (stereo not given)
68: O=C(O)c1cc(O)ccc1O
Screen / compound no.,65,66,67,68
CCT chaperon mod,0.0,2.3,-2.8,1.8
IL2 activator,0.3,3.8,1.0,0.6
EPAC1 ag,-4%,-3%,-3%,-18%
EPAC1 antag,-6%,15%,-1%,17%
PLK1 PBD inh,-7%,1%,-15%,-5%
